GALR2 ag: activates the human galanin receptor 2; AID 803; O43603; GALR2-expressing cells, agonist activation read-out; 0.48% of 140,000 active; activation, %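 (tested at 5 µM)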;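 active = above mean plus 3 SD of all compounds, about 5% in these data, not always enough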;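 also: 0% = vehicle buffer wells and 100% = reference agonist at full effect; tested in CHO reporter cells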
Target sequence (O43603 whole entry, looked up): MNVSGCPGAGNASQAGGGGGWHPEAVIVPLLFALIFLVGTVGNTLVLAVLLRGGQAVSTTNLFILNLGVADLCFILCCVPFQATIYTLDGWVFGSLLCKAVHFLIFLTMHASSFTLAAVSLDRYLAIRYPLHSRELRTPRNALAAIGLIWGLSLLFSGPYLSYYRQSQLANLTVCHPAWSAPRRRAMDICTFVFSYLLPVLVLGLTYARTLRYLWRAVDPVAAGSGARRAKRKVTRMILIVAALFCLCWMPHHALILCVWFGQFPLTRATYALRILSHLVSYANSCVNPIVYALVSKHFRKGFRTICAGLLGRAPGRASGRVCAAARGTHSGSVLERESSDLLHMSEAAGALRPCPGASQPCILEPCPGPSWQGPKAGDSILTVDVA
RGS16-Gao: regulators of human RGS16-Galphao interaction. O15492+P09471. bead-based flow cytometry RGS16-Galphao binding, fluorescence; actives lie on both sides. binding response (% of control), % at 10 µM. 0.38% of 220,000 active;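 active = below 25% or above 175%, edge rows of some plates excepted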;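 also: Galphao activated by GDP with aluminum fluoride before binding; 100% = wells without compound and 0% = beads without RGS; some results beyond the cut were filed as inactive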
Target sequence (O15492 whole entry, looked up): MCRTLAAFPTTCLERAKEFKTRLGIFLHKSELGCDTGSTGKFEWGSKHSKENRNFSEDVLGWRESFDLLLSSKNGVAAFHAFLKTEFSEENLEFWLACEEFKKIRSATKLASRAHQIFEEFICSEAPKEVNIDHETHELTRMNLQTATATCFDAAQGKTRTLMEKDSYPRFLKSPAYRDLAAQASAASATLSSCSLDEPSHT
Target sequence (P09471 whole entry, looked up): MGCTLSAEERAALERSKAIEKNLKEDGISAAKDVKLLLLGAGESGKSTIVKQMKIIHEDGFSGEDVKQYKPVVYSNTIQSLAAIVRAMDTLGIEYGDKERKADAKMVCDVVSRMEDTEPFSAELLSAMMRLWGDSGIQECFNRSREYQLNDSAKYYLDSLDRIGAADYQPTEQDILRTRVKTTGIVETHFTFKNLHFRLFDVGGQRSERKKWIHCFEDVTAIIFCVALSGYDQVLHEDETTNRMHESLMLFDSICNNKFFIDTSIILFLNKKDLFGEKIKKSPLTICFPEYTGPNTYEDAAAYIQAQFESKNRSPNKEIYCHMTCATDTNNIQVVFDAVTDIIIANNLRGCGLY
INS promoter inh: TRM-6 insulin promoter activity inhibition | TRM-6 cells (human fetal islet line), insulin promoter-eGFP reporter, imaging; reporter expression induced with tamoxifen | inhibition, % at 2 µM | 0.9% of 130,000 active;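 active = inhibition above the mean plus 3 SD, with well images judged a real hit on visual review, cut at about 60% in these data, passing the limit was not always enough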
HSV augment: increases HSV replication in cells. maximum fold increase. 0.005% of 220,000 active. HSV replication augmentation in cells, fold increase. AID 1956;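 active = peak rise of 1.5-fold or more in the series; tested in PC3 cells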;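 also: first round at 10 µM; read as green reporter fluorescence; hits show the peak of a series up to 25 µM; 1 = signal of infected wells without compound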
PKD1 kinase inh: inhibitors of human PKD1 kinase. PKD1 kinase fluorescence polarization assay. inhibition, %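 (about 10 µM by stock and volumes)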. 0.056% of 200,000 active;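 active = inhibition of 50% or more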;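 also: controls were vehicle for no effect and a reference inhibitor for full effect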
INS promoter inh cell count: further read-out of INS promoter inh, marked with its call; normalized cell count, %; measured here: cell count, toxicity; reference of the scale not given here;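 cells exposed to compound for 48 h; stained nuclei by imaging scaled within each plate; lower means fewer cells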
HSV augment primary fold: second read-out of HSV augment, no call of its own (marks repeat the call); fold increase; compound at 10 µM; measured here: primary screen fold increase 10 uM; tested in PC3 cells;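 GFP signal in the first replicate; 1 = infected wells without compound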
Starred values were filed as active, the others as inactive; i = inactive; x = not tested or not shown.

Below each SMILES: GALR2 ag, PKD1 kinase inh, HSV augment, RGS16-Gao, INS promoter inh, HSV augment primary fold, INS promoter inh cell count
c1ccc2c(c1)nc(N1CCN(C3CCCCC3)CC1)c1nnnn12
 : -0.4, -4, i, 114, x, 0.94, x
CCc1ccc2c(c1)C(c1ccc([N+](=O)[O-])cc1)=NNC(c1ccc(Br)cc1)=N2
 : -0.8, -1, i, 78, 29, 0.94, 96
COC(=O)CSc1nnc(C)c(=O)[nH]1
 : -3.0, -4, i, 104, 29, 1, 85
CC1=N/C(=C\c2ccc([N+](=O)[O-])cc2)C(=O)N1c1ccc(Cl)cc1
 : 0.1, 5, i, 94, 4, 0.92, 91
Cc1ccc(NC(=O)COC(=O)c2cccc(N3C(=O)c4ccccc4C3=O)c2)cc1
 : x, x, i, 111, x, 0.96, x
O=c1c2ccccc2nc(SCc2cc(=O)n3ccsc3n2)n1CCCO
 : -1.5, -4, i, 83, 20, 0.92, 101
Cc1oc2cc(O)ccc2c(=O)c1N1C(=O)c2ccccc2C1=O
 : -2.1, 4, i, 103, x, 0.89, x
CN1CCN(C(=O)C2=C[C@H](c3coc4ccccc4c3=O)C[C@H](OCc3ccc(CO)cc3)O2)CC1
 : x, 5, i, 102, x, 0.71, x
O=C(Nc1nccs1)C1CCN(S(=O)(=O)c2ccc3c(c2)OCCCO3)CC1
 : -0.4, -3, i, 106, 25, 0.76, 113
CC1CCCCN1S(=O)(=O)c1ccc(S(=O)(=O)NCCc2ccncc2)cc1 (configuration not stated)
 : -1.6, -5, i, 98, -89, 1.1, 117
Cc1ccc(NC(=O)COc2ccccc2C(=O)Nc2ccccc2)cc1Cl
 : -0.4, 8, i, 104, x, 1, x
Cc1cc2ccccc2nc1SCC(=O)NC1CCCCC1
 : x, -6, i, 110, 36, 0.94, 95
O=C(CN(c1ccc(F)cc1)S(=O)(=O)c1ccc2c(c1)OCCO2)NCc1ccccn1
 : -1.4, -5, i, 111, x, 0.75, x
CC(C)N1CCN(Cc2ccc(C#CCCO)cc2)CC1CCO (configuration not stated)
 : x, -8, i, 106, -14, 1, 92
CCc1ccccc1N(CC)C(=O)c1cn(C)c(=O)c2cc(OC)c(OC)cc12
 : -2.9, -9, i, 103, x, 0.85, x
CCS(=O)(=O)n1nc(-c2ccc(Cl)cc2)nc1SC
 : -1.6, 2, i, 105, 72*, 0.61, 222*
CCCCOCCCNS(=O)(=O)c1ccccc1
 : -0.8, -1, i, 105, 0, 1.2, 105
OCC1(CCCc2ccccc2)CCN(C2CCSCC2)CC1
 : x, -3, i, 103, x, 0.83, x
CCC(=O)Nc1ccc(C(=O)NCc2ccccn2)cc1
 : x, -1, i, 101, x, 1, x
Cc1c(C(=O)N2CC(C)OC(C)C2)sc2nc(-c3ccccc3)cn12 (configuration not stated)
 : -4.0, 1, x, 107, x, x, x
CC(=O)C1=C(C)NC(=S)NC1c1cc([N+](=O)[O-])ccc1O (configuration not stated)
 : x, x, i, 100, x, 0.87, x
COc1ccc(S(=O)(=O)N(c2onc(C)c2Cl)S(=O)(=O)c2ccc(OC)c(OC)c2)cc1OC
 : -2.8, -2, i, 48, x, 0.77, x
CC(C)OCCCNc1nc2c(-c3ccccc3)nnn2c2ccccc12
 : 0.0, -8, x, 83, -55, x, 78
O=C(Cc1c[nH]c2ccccc12)N1CCN(c2ccccc2)CC1
 : x, 0, i, 102, x, 0.93, x
CCCN1Cc2cccc(C(=O)NC(CC(=O)OCC)c3ccc(OC(C)C)cc3)c2C1=O (configuration not stated)
 : x, -1, i, 94, -62, 0.82, 133
O=C(CNC(=O)c1ccc2c(c1)OCCO2)N/N=C/c1ccc(Cl)cc1
 : x, -1, i, 111, -108, 0.87, 100
O=C(Cc1ccsc1)NCC(c1ccco1)N1CCCCC1 (configuration not stated)
 : -0.3, -15, i, 100, x, 0.94, x
COc1ccc(-n2cnnc2)cc1
 : -1.4, -6, i, 99, 3, 0.98, 110
CC(NC(=O)Cn1nc(-c2ccccc2)c2ccccc2c1=O)c1ccccc1 (configuration not stated)
 : -0.4, -7, i, 102, 0, 0.95, 162
O=C(COc1ccc(Cl)cc1Cl)NC(=S)N1CCCc2ccccc21
 : -3.8, -1, i, 96, -22, 0.99, 57
CCn1c(=O)c2c(cnn2C)c2ccccc21
 : -0.3, -5, i, 95, 14, 0.76, 62
CNc1ccc(/C=C/C(=O)c2cccc3ccccc23)cc1[N+](=O)[O-]
 : -2.1, 3, i, 83, 33, 0.56, 67
O=C(O)C1CCN(c2nc(-c3ccccc3)nc3c2oc2ccccc23)CC1
 : -2.5, -8, i, 102, 36, 0.93, 95
Cc1ccc(NC(=O)Cc2cc(C(=O)O)c3ccccc3n2)c(C)c1
 : x, -3, i, 106, x, 1.1, x
COc1ccc(NC(=O)/C=C/C(=O)O)cc1Cl
 : -0.1, 10, i, 101, 5, 0.89, 20
CC1=N/C(=C\c2ccc([N+](=O)[O-])cc2)C(=O)N1c1ccc(Br)c(C)c1
 : -0.9, -6, i, 238, -13, 0.95, 50
CC(c1ccccn1)N(Cc1ccco1)C(=S)Nc1cccc(F)c1 (configuration not stated)
 : x, -7, i, 95, x, 0.96, x
Cc1c(/C=N/NC(=O)C(C)(C)Oc2ccc(Cl)cc2)cnn1C
 : -1.0, 10, i, 100, 39, 1.3, 126
Cc1ccnc(NS(=O)(=O)c2ccc(NC(=O)C34CC5CC(CC(C5)C3)C4)cc2)n1
 : 0.6, -6, i, 98, -45, 0.91, 148
COC(=O)C1CC(O)CN1C(=O)Nc1cccc(C(F)(F)F)c1 (configuration not stated)
 : x, 5, i, 98, 0, 1.3, 139
CCOC(=O)c1c(NC(=O)CSc2nc3ccccc3o2)sc(C(C)=O)c1C
 : -2.5, 1, i, -3.6*, -54, 0.95, 81
COc1ccccc1NC(=O)CSc1nnnn1C
 : -1.1, -1, i, 98, x, 1.1, x
C=CCn1c(=O)n(CCOC)c(=O)c2sc3ccccc3c21
 : -1.9, -4, i, 106, x, 1.1, x
N#CC1=C(SCC(=O)c2ccc(Br)cc2)NC2=C(C(=O)CCC2)C1c1ccco1 (configuration not stated)
 : -0.6, -1, x, 98, x, x, x
O=C(Nc1cccc(-c2nnc(-c3ccccc3)o2)c1)C1CCCO1 (configuration not stated)
 : -2.2, -3, i, 88, 7, 0.76, 118
COc1cc2c(cc1OC)CN(C(=O)c1ccc(S(=O)(=O)N3CCCCC3)cc1)CC2
 : 0.2, -1, i, 102, x, 0.76, x
O=C(Cc1ccc2cccnc2c1)c1ccc(O)cc1O
 : -0.8, 5, i, 103, x, 1.1, x
COc1ccc(CN(C)C(C)C(=O)Nc2ccc(S(=O)(=O)N3CCOCC3)cc2)c(OC)c1 (configuration not stated)
 : x, -3, i, 99, -20, 0.88, 137
CN1CCC(=NNC(=O)c2cc(-c3ccc(Cl)cc3)n[nH]2)CC1
 : x, x, i, 102, x, 0.93, x
CCCCn1cnc2c(cnn2-c2ccc(Cl)cc2)c1=O
 : -3.4, -12, i, 99, 19, 0.95, 131
CCn1c(SC)nnc1-c1ccc(S(=O)(=O)N2CCCCC2)cc1
 : -3.9, 5, i, x, -7, 0.85, 80
C/C(=N\NC(=O)Cc1cccn1C)c1ccc2ccccc2c1
 : -0.5, -6, i, 53, -5, 0.91, 90
COC(=O)C1C(=O)C2=C(CC1C)NC(=O)CC2c1ccccc1 (configuration not stated)
 : -2.0, -4, i, 95, 24, 0.87, 102
Cc1nn(C)c(C)c1S(=O)(=O)N1CCC(C(=O)NC2CCCc3ccccc32)CC1 (configuration not stated)
 : -1.7, 0, i, 104, x, 0.84, x
CCOc1nc(-c2ccccc2)ccc1-c1noc(COC)n1
 : 1.0, -11, i, 100, -16, 0.8, 153
O=C(Nc1ccccn1)c1ccc(COc2ccccc2Cl)o1
 : -1.4, -13, i, 154, 12, 0.97, 123
O=S(=O)(Nc1cccc2ccccc12)c1cccc2nonc12
 : x, x, i, 95, x, 1.1, x
COc1cc(C(O)P(=O)(OCCC(C)C)c2ccc(N(C)C)cc2)cc(OC)c1OC (configuration not stated)
 : x, x, i, 101, x, 1.1, x
Cc1ccc(CCN2CC(C(=O)NCCCN3CCCCCC3)CC2=O)cc1 (configuration not stated)
 : -1.3, 2, i, 95, 21, 0.98, 34
C=CCc1ccccc1OCC(CN1CCCCC1)OC(C)=O (configuration not stated)
 : -1.5, -4, i, 103, x, 0.91, x

Five of these compounds, reformatted.
compound	GALR2 ag	PKD1 kinase inh	HSV augment	RGS16-Gao	INS promoter inh	HSV augment primary fold	INS promoter inh cell count
C=CCn1c(=O)n(CCOC)c(=O)c2sc3ccccc3c21	-1.9	-4	i	106	x	1.1	x
CCCCn1cnc2c(cnn2-c2ccc(Cl)cc2)c1=O	-3.4	-12	i	99	19	0.95	131
O=C(Nc1ccccn1)c1ccc(COc2ccccc2Cl)o1	-1.4	-13	i	154	12	0.97	123
COc1ccc(CN(C)C(C)C(=O)Nc2ccc(S(=O)(=O)N3CCOCC3)cc2)c(OC)c1 (configuration not stated)	x	-3	i	99	-20	0.88	137
CN1CCC(=NNC(=O)c2cc(-c3ccc(Cl)cc3)n[nH]2)CC1	x	x	i	102	x	0.93	x

Further results follow.
Below each SMILES: GALR2 ag, PKD1 kinase inh, HSV augment, RGS16-Gao, INS promoter inh, HSV augment primary fold, INS promoter inh cell count
CCCN(CCC)Cc1cc2ccccc2c2c1COC2
 : -0.1, 4, i, 109, 8, 1, 86
CCOCCCNC(=O)C(c1ccc(Cl)cc1)N(Cc1cccs1)C(=O)c1ccccn1 (configuration not stated)
 : x, -8, i, 104, x, 1.1, x
CCCCC(NS(=O)(=O)c1ccc(C)cc1)C(=O)Oc1ccc2c3c(c(=O)oc2c1)CCC3 (configuration not stated)
 : -0.7, -2, i, 106, x, 0.93, x
COc1ccc(CNC(=O)c2noc3c2CCCC3)cc1
 : -3.3, -1, i, 119, x, 0.83, x
COc1ccc2oc(C(=O)OCC(=O)NCCN3C(=O)CSC3=O)c(C)c2c1
 : -0.2, -3, i, 104, x, 0.96, x
O=C(Cn1nnc2ccccc2c1=O)N[C@H](C(=O)O)c1ccccc1
 : x, x, i, 109, x, 0.98, x
Cc1onc(-c2c(F)cccc2Cl)c1C(=O)OCC(=O)Nc1c(C)n(C)n(-c2ccccc2)c1=O
 : -1.8, 10, i, 100, 4, 1, 112
O=C1NC(c2cc3c(cc2Cl)OCO3)Oc2ccccc21 (configuration not stated)
 : -1.7, -1, i, 98, 45, 1, 105
O=C(CSc1nnc(COc2ccccc2)n1-c1ccccc1)c1ccccc1
 : -3.0, -3, i, 97, 14, 1, 79
O=C(Nc1ccc(O)cc1)/C(=C\c1cccs1)NC(=O)c1ccccc1
 : 8.8*, 4, i, 72, 9, 0.89, 67
Cc1cccc(C(=O)NCCNC(=O)c2cccc(C)c2)c1
 : -0.5, -11, i, 80, 18, 0.94, 122
CCCc1nc2ccccc2n1CCOc1ccccc1
 : -0.1, -3, i, 102, 25, 0.96, 135
Cc1ccc(S(=O)(=O)NC(C)C(=O)NC2CCCCCC2)cc1 (configuration not stated)
 : -1.5, -5, i, 26, -315, 0.94, 64
Cn1c2c(c(=O)n(C)c1=O)CN(Cc1ccc(F)cc1)CN2
 : -3.5, 2, i, 106, x, 1, x
Cc1cccc(NC(=O)CN2C(=O)N/C(=C\c3ccc(-c4cccc(C(=O)O)c4)o3)C2=O)c1
 : x, x, i, 103, x, 1.1, x
COc1ccc(N2CCN(C(=O)CNC(=O)c3cn(-c4ccccc4OC)c(=O)c4ccccc34)CC2)cc1
 : x, -6, i, 100, x, 0.7, x
CCOC(=O)C1=C(C)NC2=C(C(=O)CC(c3ccc(OC)c(OC)c3)C2)C1c1ccc(C)o1 (configuration not stated)
 : -0.8, -7, x, 93, 3, x, 147
Cc1nc2ncnn2c(N2CCN(C(c3ccccc3)c3ccccc3)CC2)c1C
 : -0.1, -13, i, 100, -55, 1.3, 105
O=C(N/N=C/c1cc([N+](=O)[O-])ccc1Cl)c1cc(-c2ccccc2)nc2ccccc12
 : x, x, i, 105, x, 0.85, x
O=C(NC(Cc1ccccc1)C(=O)O)C1CCCCC1 (configuration not stated)
 : -0.3, -6, i, 98, x, 1, x
Cn1c(=O)c(C(=O)COC(=O)c2cc(-c3ccco3)nc3ccccc23)c(N)n(Cc2ccccc2)c1=O
 : -0.1, -5, x, 89, 20, x, 157
CCc1ccc(CNC(=O)Cn2nc(-c3ccccc3)ccc2=O)cc1
 : x, -5, i, 102, 20, 0.89, 76
CCOC(=O)C1(CC)NC(c2ccco2)C2C(=O)N(c3ccc(C)cc3)C(=O)C21 (configuration not stated)
 : -1.6, -11, i, 104, 14, 0.98, 87
CC1CCCCC1NC(=O)COC(=O)CNC(=O)c1cccc(F)c1 (configuration not stated)
 : x, 7, i, 98, x, 0.9, x
O=C(O)CCCn1cc(NC(=O)c2cc(F)c(F)cc2Cl)cn1
 : x, 0, i, 99, x, 0.99, x

Bioassay records (PubChem)

Outcome played no part in choosing rows. Share with any hit: about 1.3%.
